High-throughput results as filed in PubChem.
Biofilm kill mix: mixture kills Candida albicans biofilm cells; C. albicans biofilm persisters + clotrimazole, fluorescence viability; primary screen in compound mixtures of four per well; inhibition, % at 7.6 µM; 0.02% of 120,000 active; AID 1242;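 active = inhibition above 30.3% in the primary screen of four-compound pools, then above 30% when the compound was retested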;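 note: compounds exposed to preformed 24 h biofilms for 48 h; the number belongs to the whole pool; some results filed as inactive read as strong as hits; inactives centre near 12; 0% = biofilm with clotrimazole alone and 100% = kill control; retested singly at about 60 µM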
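Test system: C. albicans biofilms. Buffer or medium: RPMI/MOPS medium, pH 7.0. Timing: 48 h compound exposure at 37 °C. Technique: Alamar Blue fluorescence. Evaluation: percent inhibition of biofilm viability.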
Active calls of the source: *. This is a subset (hit frequency here may not be typical).

SMILES	Biofilm kill mix
Cc1[nH]c2c(C)cccc2c1CCNC(=O)C1CCCCC1C(=O)OCC(F)(F)F (centres undefined)	8
Cc1ccc(S(=O)(=O)Nc2cc(C)c(O)cc2C)cc1	-1
Cc1ccc(C2=NN(C(=O)CCl)C(c3cccs3)C2)o1 (centres undefined)	18
CCCC(=O)n1nc(-c2ccccc2)nc1SC	13
COCC(=O)N1CCCC(C(=O)c2ccc(Oc3ccccc3)cc2)C1 (centres undefined)	39
CCn1c(SCC(=O)Nc2cc(C)on2)nnc1-c1ccccc1	15
Cc1ccc(S(=O)(=O)NCCC(=O)OCC(=O)Nc2ccccc2Cl)cc1	4
O=C1c2ccccc2NC(c2cccs2)N1NS(=O)(=O)c1ccccc1 (centres undefined)	29
Cc1cccc(NC(=O)CCn2cnnn2)c1	7
CN(C)S(=O)(=O)c1cccc(NC(=O)c2cnccn2)c1	1
Cc1nnc(SCc2nnc(-c3cccs3)o2)n1C	27
Cn1c(C(O)c2ccc(Br)cc2)nc(Cl)c1Cl (centres undefined)	21
COc1ccccc1N(CC(=O)NCCSc1ccc(Cl)cc1)S(C)(=O)=O	1
CCc1ccc(C(=O)NC(CCSC)C(=O)OC)cc1 (centres undefined)	20
CC(=O)c1cccc(NC(=O)COC(=O)c2n[nH]c3ccccc23)c1	0
CCOc1ccc(S(=O)(=O)Nc2ccc(C(=O)NN)cc2)cc1	11
Cc1ccc(NC(=O)COC(=O)CNC(=O)C2CCCCC2)c(Br)c1	10
CC(=O)Nc1ccc(SCC(=O)OCC(=O)NC(=O)NC2CCCC2)cc1	31
COc1ccc(/C=C\C(=O)NCc2ccc3[nH]c(C)cc3c2)cc1OC	17
Cc1cccc(Nc2nnc(SCC(=O)Nc3cccnc3Cl)s2)c1	9

Four of these compounds in a different format:
Cc1ccc(S(=O)(=O)Nc2cc(C)c(O)cc2C)cc1
  Biofilm kill mix: -1

Cc1[nH]c2c(C)cccc2c1CCNC(=O)C1CCCCC1C(=O)OCC(F)(F)F (centres undefined)
  Biofilm kill mix: 8

Cn1c(C(O)c2ccc(Br)cc2)nc(Cl)c1Cl (centres undefined)
  Biofilm kill mix: 21

CCCC(=O)n1nc(-c2ccccc2)nc1SC
  Biofilm kill mix: 13

The listing continues.
SMILES	Biofilm kill mix
COc1ccc(CNC(=O)CN(C)S(=O)(=O)c2ccc(Cl)cc2)cc1	13
CCC(C)[C@H](N)c1cn([C@@H](CCCCN)C(=O)N2CCNCC2)nn1 (some centres undefined)	17
COc1cc(C#N)ccc1OCC(=O)Nc1cccc(S(=O)(=O)N2CCCC2)c1	2
COc1ccccc1N1CCN(CC(=O)Nc2ccc3c(c2)OCCO3)CC1	6
C(#Cc1ccccc1)CN1CCOCC1	10
CCOC(=O)C1=C(CC)Nc2ccccc2N=C1NC(=O)c1oc2ccccc2c1C	7
CCN(CC(=O)Nc1ccccc1C(=O)Nc1ccccc1)Cc1nc2ccccc2c(=O)[nH]1	13
Cc1ccc(NC(=O)CCc2nc3ccccc3[nH]2)cc1C	13
CCNC(=S)NNC(=O)c1cc(-c2cccnc2)nc2ccccc12	5
O=[N+]([O-])c1ccc(N/N=C/c2sc(N3CCOCC3)nc2-c2ccccc2)c(S(=O)(=O)Nc2ccc(Cl)cc2)c1	17
Cc1cccc(C)c1NC(=O)NC1(C(=O)NCCN2CCOCC2)CCCCC1	15
COc1ccc(N2C(=O)/C(=C\c3ccco3)N=C2SCC(=O)NC(C)C)cc1Cl	14
COc1cc(O)c(C(CC(=O)N2CCOCC2)c2cc(OC)c(OC)c(OC)c2)c(OC)c1 (centres undefined)	17
O=C(O)C1CC=CCC1C(=O)NCCCCc1ccccc1 (centres undefined)	16
CCC(=O)O/N=C(\N)c1ccc(Oc2cc(C)c(Cl)c(C)c2)c([N+](=O)[O-])c1	10
Cc1ccc(Cc2nc(-c3cccnc3)no2)cc1	26
O=C(Nc1nc2ccccc2c(=O)s1)c1ccco1	27
CCOC(=O)CNC(=S)N(CCCN1CCCC1)Cc1cccs1	1
N#C/C(=C\Nc1ccc(Cl)cn1)S(=O)(=O)c1ccccn1	13
CCN(CC)S(=O)(=O)c1ccc(OC)c(NC(=S)Nc2ccc(C)c(C)c2)c1	19

Of the compounds above, 4 have a thiophene ring, fused or not:
SMILES	Biofilm kill mix
Cc1ccc(C2=NN(C(=O)CCl)C(c3cccs3)C2)o1 (centres undefined)	18
O=C1c2ccccc2NC(c2cccs2)N1NS(=O)(=O)c1ccccc1 (centres undefined)	29
Cc1nnc(SCc2nnc(-c3cccs3)o2)n1C	27
CCOC(=O)CNC(=S)N(CCCN1CCCC1)Cc1cccs1	1

(further entries)
SMILES	Biofilm kill mix
CCn1c(SCC(=O)c2ccc(NC(C)=O)c(OC)c2)nnc1-c1ccc(NS(C)(=O)=O)cc1	13
Cc1ccccc1NC(=O)c1nn(-c2ccc(F)c(F)c2)ccc1=O	9
O=C1NC[C@H](Cc2ccccc2)N(CC2CCCCC2)C1=O	13
CCOc1cc(/C=N/N=C2/NC(=O)C(CC(=O)O)S2)ccc1OCc1ccccc1Cl (centres undefined)	17
O=C(Cn1nnc2ccccc21)OCC(=O)c1ccc(Cl)cc1	14
Cc1ccc2c(c1)c1nnc(SCC(=O)N3CCCc4ccccc43)nc1n2CC(=O)O	2
CCN(CC)CCCNC(=O)c1ccc2c(=O)n(Cc3ccc4c(c3)OCO4)c(=S)[nH]c2c1	24
O=C(CS(=O)(=O)c1ccc2ccccc2c1)Nc1ccccc1Cl	6
Cc1c(NC(=S)N/C(=N/S(=O)(=O)c2ccc(Cl)cc2)c2ccccc2)c(=O)n(-c2ccccc2)n1C	19
COc1ccc(OC)c(NC(=O)CC2SC(=Nc3ccc(F)cc3)N(CCC3=CCCCC3)C2=O)c1 (centres undefined)	12
Nc1c(C(=O)NCc2ccc3c(c2)OCO3)nnn1Cc1cccc(F)c1	33
O=C(Cc1csc(-c2ccccc2)n1)NCc1ccccc1F	8
COc1ccc(CC(=O)NN2C(=O)c3ccccc3C2=O)cc1	7
O=C(c1ccco1)N1CCN(S(=O)(=O)Cc2ccccc2Cl)CC1	15
CCCCCN1C=CC(=C2C(=O)c3ccccc3C2=O)C=C1	4
COC(=O)c1ccc(C(=O)NN)cc1	5
COC(=O)c1c(-c2ccc(C)cc2)csc1NC(=O)c1c(-c2ccccc2)noc1C	15
O=C(Nc1cccc(S(=O)(=O)N2CCOCC2)c1)[C@@H]1CCCN1S(=O)(=O)c1ccc(Cl)cc1	20
O=C(CSc1nnnn1-c1cccc(C(=O)O)c1)NC(c1ccccc1)c1ccccc1	18
CC(NC(=O)c1cc(COc2c(F)cccc2F)on1)c1cnn(-c2ccccc2)c1 (centres undefined)	10
COC(=O)C1=C(C)NC(=S)NC1/C=C/c1ccccc1 (centres undefined)	17
Cc1sc(Cc2nc(O)cs2)nc1-c1ccccc1	19
CC(C)N(Cc1cnn(C)c1)Cc1nc(COc2ccccc2)no1	1
CCOc1ccc(S(=O)(=O)NC2CCCCCC2)cc1	1
O=C(COc1ccccc1)NCCSCc1ccccc1Cl	10
COc1ccccc1NS(=O)(=O)c1cc(NC(=O)c2ccccc2F)ccc1N1CCOCC1	-6
O=C(CSc1ccccc1)NCc1ccc(F)cc1	15
O=C(N/N=C/c1sc(N2CCOCC2)nc1-c1ccccc1)c1ccc(O)cc1	28
CCNC(=S)Nc1ccc(-c2nc3ccccc3[nH]2)cc1	3
Brc1ccccc1OCCCN1CCCCCC1	4
O=C(NC(=O)c1cc(OCC(F)(F)F)ccc1OCC(F)(F)F)Nc1ccccc1	6
O=C(NNC(=S)Nc1ccccc1)c1ccc2ncccc2c1	2
O=C(NC(=S)NCC1CCCO1)c1ccc([N+](=O)[O-])cc1 (centres undefined)	12
Cc1ccc(-c2nc3n(n2)Cc2ccccc2-3)cc1	8
CC(C)(C)NC(=O)NCc1cccnc1	10
COc1ccc(NC(=O)CCC(=O)N/N=C/c2cn(C)nc2C)cc1	30
CC(=O)N1CCN(c2ccc(OC[C@H]3CO[C@](Cn4ccnc4)(c4ccc(Cl)cc4Cl)O3)cc2)CC1	16
CC(C)Cn1c(N)c(C(=O)COC(=O)/C=C/c2cccs2)c(=O)n(C)c1=O	18
Cc1cccc(OCCCN2C(=O)C(=O)c3cc(C)ccc32)c1	17
O=C(Oc1cc(=O)oc2ccccc12)c1ccccc1	-1
CC(C)(C)c1ccc(Oc2ncccc2NC(=O)c2cccs2)cc1	18
COc1cc(OC)cc(C(=O)N[C@H](C(=O)Nc2nc3ccccc3[nH]2)C(C)C)c1	7
COc1ccc(-n2nc(C(=O)NCc3cc(OC)ccc3OC)c3c4ccccc4n(C)c3c2=O)cc1	11
O=C(Cn1nnc2ccccc21)N/N=C/c1ccco1	15
C/C(=N\O)C(C)(C)Nc1cccc(Br)c1	9
O=C(Nc1ccc(-c2nc3ccccc3c(=O)o2)cc1)c1ccco1	8
O=C(CNC(=O)c1cccc(F)c1)N/N=C/c1cc(Br)ccc1OC(=O)/C=C/c1ccco1	13
CCOC(=O)C(C)(C)N(Cc1ccc(C)cc1)S(=O)(=O)c1ccc(Cl)c([N+](=O)[O-])c1	-6
Cc1ccc(N2CCN(C(=S)c3ccc(-c4cccc([N+](=O)[O-])c4)o3)CC2)cc1	10
Cc1cccc2cc3c(N)c(C(=O)N4CCc5ccccc54)sc3nc12	18
CCCC(=O)Nc1nnc(SCC(=O)N2CCN(c3ccccc3)CC2)s1	26
N#Cc1ccc(C23CC4(C2)[C@H](CN(CC2CCCCC2)[C@@H]4c2ccccc2)C3c2ccccc2)cc1 (some centres undefined)	14
O=C(NCc1cccnc1)C(=O)NCC(c1ccco1)N1CCN(c2ccc(F)cc2)CC1 (centres undefined)	14
CC(C)c1nccn1S(=O)(=O)c1cc([N+](=O)[O-])ccc1Cl	27
Cc1ccc(C)c(Sc2ccc(NC(=O)CCl)cc2)c1	-7
Cc1ccccc1NC(=O)C(=O)NC(C)CCc1ccccc1 (centres undefined)	4
Cc1ccc(NC(=O)NC(=O)N(C(C)C)S(=O)(=O)c2ccc(C)cc2)cc1	14
O=C1COc2ccc(C(=O)C[n+]3cccc(O)c3)cc2N1	19
CC(Cc1cccs1)NC(=S)Nc1ccc(Cl)c(Cl)c1 (centres undefined)	8
O=C(COC(=O)c1cncc(Br)c1)NC1CCCCCC1	-4

Six entries drawn at random from those above, as already listed:
SMILES	Biofilm kill mix
N#Cc1ccc(C23CC4(C2)[C@H](CN(CC2CCCCC2)[C@@H]4c2ccccc2)C3c2ccccc2)cc1 (some centres undefined)	14
Cc1ccccc1NC(=O)C(=O)NC(C)CCc1ccccc1 (centres undefined)	4
CCCC(=O)Nc1nnc(SCC(=O)N2CCN(c3ccccc3)CC2)s1	26
CCOC(=O)C(C)(C)N(Cc1ccc(C)cc1)S(=O)(=O)c1ccc(Cl)c([N+](=O)[O-])c1	-6
CC(Cc1cccs1)NC(=S)Nc1ccc(Cl)c(Cl)c1 (centres undefined)	8
COc1ccc(-n2nc(C(=O)NCc3cc(OC)ccc3OC)c3c4ccccc4n(C)c3c2=O)cc1	11

Other compounds
SMILES	Biofilm kill mix
Cc1c(Cl)c(C(F)F)nn1CC(=O)NC1C(=O)N2C(C(=O)O)=C(CSc3nnnn3C)CSC12 (centres undefined)	32
O=C(NCC1CCCO1)c1cccc(NC(=O)c2cccs2)c1 (centres undefined)	10
CCC(CC)C(=O)c1c[nH]c(C(=O)NCc2ccccn2)c1	10
CC(=O)c1ccc(NC(=S)N(Cc2ccccc2)C(C)C2CC2)cc1 (centres undefined)	14
O=C(NCc1ccccn1)c1cn(-c2ccccc2)nc1-c1ccc(Cl)cc1	11
COc1cc2c(cc1NC(=O)COC(=O)[C@@H](NC(=O)c1ccccc1)C(C)C)oc1ccccc12	4
O=C1N/C(=C\c2ccc(O)cc2)C(O)=C1C=NCc1ccccc1	4
O=C(NCCCN1CCCC1)c1ccc(Cn2c(=S)[nH]c3ccc(Br)cc3c2=O)cc1	17
N=C1C(c2ccccc2)=C(O)CN1NC(=O)c1ccccc1	22
Cc1ccc(C(=O)NNC(=O)c2ccc(C)cc2)cc1	8
Cc1ccc(S(=O)(=O)n2[nH]c(=O)cc2NC(=O)c2cccs2)cc1	7
C=CCNC(=S)N1CCN(c2ccccc2Cl)CC1	21
O=C(COc1ccccc1Cl)c1ccc[nH]1	8
O=C(NC1CCCCC1)c1ccccc1NC(=S)NC(=O)C1CCC1	-1
CCOc1ccc(N2C(=O)CC(N(CCc3ccc(OC)cc3)C(=O)c3cccc(F)c3)C2=O)cc1 (centres undefined)	10
Cc1csc(NS(=O)(=O)c2cccc([N+](=O)[O-])c2)n1	14
Cc1ccc(NS(=O)(=O)c2cc(C(=O)Nc3cccc([N+](=O)[O-])c3)ccc2C)cc1	23
C[C@@H](CO)NC(=O)c1ccc2c3n(nc2c1)-c1ccc(Cl)cc1CO3	19
C/C(=N\Nc1nc(N)cc(Cl)n1)c1ccc(Cl)c(Cl)c1	12
CCCCn1c(N)c(NCCC(C)C)c(=O)[nH]c1=O	8

Next part (2 carried over from the part before).
SMILES	Biofilm kill mix
C/C(=N\Nc1nc(N)cc(Cl)n1)c1ccc(Cl)c(Cl)c1	12
CCCCn1c(N)c(NCCC(C)C)c(=O)[nH]c1=O	8
CC(C)CC(=O)N[C@H](C(=O)N[C@H](C(=O)N[C@@H](CC(C)C)[C@@H](O)CC(=O)N[C@@H](C)C(=O)N[C@@H](CC(C)C)[C@@H](O)CC(=O)O)C(C)C)C(C)C	8
CCN(CC)S(=O)(=O)c1ccc(C(=O)NCCN2C(=O)S/C(=C\c3cccnc3)C2=O)cc1	5
COC(=O)/C=C/c1ccc(-n2cncn2)cc1	9
COC(=O)c1ccc(-c2ccc(/C=N/N3C(=O)C4C5C=CC(C6CC56)C4C3=O)o2)cc1 (centres undefined)	12
C=CCNC(=O)C1CCN(c2ccc(S(=O)(=O)N3CCOCC3)cc2[N+](=O)[O-])CC1	10
